Cruzain inh Det: inhibitors of Trypanosoma cruzi cruzain with detergent; P25779; purified cruzain, Z-FR-AMC fluorescence, 0.01% Triton; Potency, µM, for the others: max response, negative = inhibition, actives largely listed as inhibitors; hit rate 0.43% among 200,000;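 further: plate controls were neutral wells for no effect and buffer without enzyme for full effect; nearly all actives have a fitted effect of over 40% in size; top concentration of the series not given in the record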
Target sequence (P25779 123-467 limits assumed): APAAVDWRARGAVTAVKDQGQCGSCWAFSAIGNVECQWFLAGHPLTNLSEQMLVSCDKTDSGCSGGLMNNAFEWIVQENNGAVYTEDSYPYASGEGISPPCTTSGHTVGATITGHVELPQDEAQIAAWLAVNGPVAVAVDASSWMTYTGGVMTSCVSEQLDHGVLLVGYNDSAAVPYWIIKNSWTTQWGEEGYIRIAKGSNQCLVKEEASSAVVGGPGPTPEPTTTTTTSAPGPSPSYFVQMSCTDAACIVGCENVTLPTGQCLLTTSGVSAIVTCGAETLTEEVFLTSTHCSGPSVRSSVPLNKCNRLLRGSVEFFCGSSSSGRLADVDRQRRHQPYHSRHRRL
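Compounds were screened in titration against cruzain (1.5 nM) with 0.01% Triton X-100 to counter colloidal aggregation. Activity was the AMC fluorescence increase over 60 s after adding 2 uM Z-FR-AMC at pH 5.5.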
NS1 function inh: influenza NS1 inhibition; S. cerevisiae slowed by influenza A NS1, growth recovery by OD600; Potency, µM (top dose mostly 46.1 µM), without a hit: at the top dose activity, positive = more growth; hit rate 0.4% among 270,000; AID 2326; active means well fitted rising curve with a large enough effect; inconclusive means small, poorly fitted or top-dose-only effect; inactive means no such curve, though single readings can be large or run the other way; further: nearly all actives have a fitted effect of over 50% in size
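Growth recovery, yeast-based: influenza A NS1 expressed in S. cerevisiae causes slow growth, and suppressors are detected by OD600. The parent strain without NS1 is used as positive control.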
Lassa entry inh: Lassa virus entry inhibition; Lassa virus pseudotype entry inhibition, cell reporter; control for the full effect not named in the record; Potency, µM (doses to about 37.9 µM), for the others: top-dose activity change, negative = inhibition, usual class: inhibitors; hit rate 1.2% among 300,000; active means well fitted inhibition curve with a large enough effect; inconclusive means small, poorly fitted or top-dose-only effect, or effect the other way; inactive means flat fitted curve, though single readings scatter; tested in HEK293 cells; further: on the % scale 0 is the no-effect control and ±100 the full control effect; nearly all actives have a fitted effect of over 50% in size; luciferase read-out
Cruzain noTriton: cruzain (T. cruzi) inhibition without detergent | purified cruzain, Z-FR-AMC fluorescence, no detergent | Potency, µM, for the others: max response, negative = inhibition, actives largely listed as inhibitors | hit rate 2.3% among 200,000 | P25779;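 further: plate controls were enzyme without inhibitor for no effect and buffer without enzyme for full effect; nearly all actives have a fitted effect of over 40% in size; top concentration of the series not given in the record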
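Purified cruzain at 1.5 nM, pre-incubated 15 min with compound at room temperature in 100 mM sodium acetate pH 5.5, 5 mM DTT, 0.00005% Triton X-100. Reaction started with 2 uM Z-FR-AMC; AMC fluorescence increase over 60 s gives rate.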
Marburg entry inh: inhibitors of Marburg virus binding or cell entry. Marburg virus pseudotyped entry inhibition, cell reporter; control for the full effect not named in the record; about a third of the inactives were read at about 46 µM. Potency, µM (series often up to 37.8 µM), for the others: at the highest dose activity change, negative = inhibition, actives largely listed as inhibitors. hit rate 1.8% among 300,000. AID 540276; active = well fitted inhibition curve with a large enough effect; inconclusive = small, poorly fitted or top-dose-only effect, or effect the other way; inactive = flat fitted curve, though single readings scatter; tested in HEK293 cells; about a fifth of its hits are not listed in these tables; further: on the % scale 0 is the no-effect control and ±100 the full control effect; luciferase read-out
SARS PLpro yeast: blocks SARS-CoV papain-like protease in a yeast assay; S. cerevisiae expressing SARS-CoV PLpro, growth rescue; control for the full effect not named in the record; Potency, µM (top dose mostly 32.9 µM), for the others: top-dose activity, positive = growth rescue; hit rate 0.19% among 330,000; AID 485353; active means well fitted rising curve with a large enough effect; inconclusive means small, poorly fitted or top-dose-only effect; inactive means no such curve, though single readings can be large or run the other way; further: 0% is about no effect; nearly all actives have a fitted effect of over 55% in size; growth read by luminescence after 48 h
2A StopGo: lowers the luciferase signal of an FMDV 2A StopGo reporter | Potency, µM (highest dose often 57.9 µM), for the others: at the highest dose signal change, negative = less light | hit rate 1.2% among 410,000 | human cells with a luciferase reporter of 2A StopGo recoding; control for the full effect not named in the record; active = well fitted falling curve with a large enough effect; inconclusive = small, poorly fitted or top-dose-only effect; inactive = no such curve, though single readings can be large or run the other way; tested in HEK293T cells; further: on the % scale 0 is the no-effect control and ±100 the full control effect; nearly all actives have a fitted effect of over 45% in size; luciferase light after 4 h
RE007 growth inh: less growth of the S. pombe RE007 Vpr strain. AID 651644. S. pombe RE007 Vpr strain, BacTiter-Glo ATP luminescence, 24 h; control for the full effect not named in the record. Potency, µM (doses to about 92.2 µM), without a hit: at the top dose activity change, negative = less growth. hit rate 0.21% among 360,000; active = well fitted falling curve with a large enough effect; inconclusive = small, poorly fitted or top-dose-only effect; inactive = no such curve, though single readings can be large or run the other way;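 further: on the % scale 0 is the no-effect control and ±100 the full control effect; nearly all actives have a fitted effect of over 50% in size; the assay follows cell death caused by Vpr and the record does not say whether a fall means rescue or toxicity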
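Fission yeast RE007 carrying one integrated HIV-1 vpr copy, seeded at OD 0.01 in PMG+AL medium with 23 nL pinned compound. Grown 24 h at 30 degrees; viability read by BacTiter-Glo luminescence after 5 min.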
An asterisk follows results filed as active; u = inconclusive; x = not tested or not shown; [ ] = remark or other dose. Unless noted, the call rests on the fitted dose curve; in most records, active means well fitted curve in the direction sought with a large enough effect; inconclusive means small, poorly fitted or top-dose-only effect, or another doubt; inactive means no such curve, though single readings can be large; an effect the other way counts as inactive or inconclusive. Potency means the concentration at half of the fitted maximal effect.

structure,Cruzain inh Det,NS1 function inh,Lassa entry inh,Cruzain noTriton,Marburg entry inh,SARS PLpro yeast,2A StopGo,RE007 growth inh
CC(NC(=O)C1(C)CC1(Br)Br)C(C)(C)C (stereo not drawn),1.6%,1%,12%,-4%,5%,4%,4%,3%
C[n+]1ccccc1/C=C/c1ccc(F)c(F)c1,x,-13%,10%[46.1 µM],x,u,-4%,-3%,2%
Fc1cccc(NC(=S)N2CCc3ccccc32)c1,x,12%,u,x,17%[46.1 µM],1%,-5%,12%
CCOc1ccc(CCNC(=O)c2cc3sc(Cl)cc3n2C)cc1OCC,-4.4%,-7%,3%,u,u,0%,-16%,8%
Cc1ccc(C)c(NS(=O)(=O)c2cc(Br)cnc2N)c1,-7.6%,-4%,14%,-8%,0%,-1%,30%[activator],25%
O=C(Nc1ccccc1)N1CCSCC1,4.1%,-2%,8%,-4%,21%,-2%,31%,-20%
Cc1ccc(S(=O)(=O)N2CCN(c3cccc(C)c3)CC2)cc1,x,2%,x,x,x,6%,-11%,10%
O=C(NNC(=O)c1c(F)cccc1F)c1ccccc1-n1cccc1,x,x,-1%[46.1 µM],x,0%[46.1 µM],0%,-8%,9%
Cc1nc(CSc2nsc(/C=C/N(C)C)c2C#N)cs1,x,x,20%,x,u,-2%,31%[activator],8%
Cc1ccc(Sc2nc(C)cc(C)c2S(C)(=O)=O)cc1,-4.3%,-16%,-10%,-1%,-1%,0%,-3%,-14%
CC12CCC(=O)N1C(C(=O)OCC(=O)Nc1ccc(Cl)c(Cl)c1)CS2 (stereo not drawn),x,x,x,x,1%[46.1 µM],0%,-24%,12%
CCC1([N+](=O)[O-])COC(c2ccc(C(C)C)cc2)OC1 (stereo not drawn),x,x,1%[46.1 µM],x,u,x,41%[activator],15%
Cc1ccnc(NS(=O)(=O)c2ccc(Cl)nc2)c1,x,-4%,19%,x,9%,1%,36%[activator],2%
O=[N+]([O-])c1ccc(CN2CC=C(c3ccccc3)CC2)cc1,x,-6%,-13%,x,-24%[46.1 µM],14%,-19%,-15%
O=C(CN1CCN(c2ccccc2O)CC1)NC(c1ccccc1)c1ccccc1,-4.0%,10%,u,2%,-28%,-11%,-17%,-13%
NC(=O)c1ccsc1NC(=O)COC(=O)Cc1cccc2ccccc12,-10%,-200%,-28%,-10%,7.1µM*,-37%,32µM*,-16%
Cc1ccc(C)c(OCCC(=O)OCC(=O)NC(=O)NCc2ccccc2)c1,x,x,-19%,x,-2%[46.1 µM],-4%,59%[activator],-6%
CCC(=O)OC1=C(C(C)=O)N(Cc2ccccc2)S(=O)(=O)c2ccccc21,-9.3%,x,-21%[46.1 µM],-4%,u,x,-18%,x
CCOC(=O)C1=C(O)C(=O)N(c2ccccc2)C1c1cccc([N+](=O)[O-])c1 (stereo not drawn),x,-3%,x,x,x,0%,6%,4%
Cc1cccc(OCC(=O)NNC(=O)C2CCCCC2C(=O)O)c1 (stereo not drawn),-1.1%,u,0%,-5%,7%,-10%,-20%,-17%
COc1cc(OC)c(Cl)cc1N,2.9%,0%,-4%,-12%,1%,-1%,1%,-13%
CCOC(=O)c1c(C)n(C)c2ccc(OCC(O)CN3CCC(C)CC3)cc12 (stereo not drawn),4.9%,-7%,x,-8%,x,7%,-26%,-10%
Cc1ccc(CNC(=O)c2cn(C3CCCC3)c(=O)c3c2c2ccccc2n3C)o1,-5.9%,-36%,x,u,4%,x,x,x
CCOC(=O)c1nn(C23CC4CC(CC(C4)C2)C3)c2c1C(=O)N(c1ccc(C)cc1)C2=O,-2.7%,8%,12%,-9%,4%,-3%,0%,-2%
COCC(C)N1CCC(n2nccc2NC(=O)CCOc2ccccc2)CC1 (stereo not drawn),x,9%,-15%,x,0%,u,-24%,0%
Cc1ccc(Nc2c([N+](=O)[O-])c(=O)n(C)c3ccccc23)cc1C,-12%,-24%,-26%,-23%,u,-26%,-10%,-7%
O/N=C/c1ccc(-c2cc(Cl)ccc2Cl)o1,-2.8%,3%,3%,u,-1%,-14%,0%,-8%
Cc1cc(C)cc(OCC(=O)N(Cc2cccs2)C2CCS(=O)(=O)C2)c1 (stereo not drawn),-1.4%,-14%,-16%,2%,u,-2%,-12%,4%
COC(=O)C(Cc1ccc(O)cc1)N1Cc2ccccc2C1=O (stereo not drawn),x,0%,16%[46.1 µM],x,u,0%,41%[activator],-4%
Cc1ccc(-n2c(Cn3c(C)nc4ccccc43)n[nH]c2=S)cc1,-4.6%,u,-2%,8%,-3%,-21%,-14%,13%
COC(=O)c1ccccc1NC(=O)c1ccc(-c2ccccc2F)o1,u,-14%,-5%,u,-4%,4%,x,5%
CN(C(=O)COc1ccc(-c2nnco2)cc1)C1CCS(=O)(=O)C1 (stereo not drawn),x,x,-15%,x,-3%,4%,-5%,-10%
Cc1cc(OCC(=O)NC(Cc2ccc(Cl)cc2)C(=O)O)c2c3c(c(=O)oc2c1)CCC3 (stereo not drawn),x,u,x,x,x,-3%,-13%,5%
O=C(COc1ccccc1)NNc1c2ccccc2nc2ccccc12,-3.3%,-6%,u,-27%,11µM*,-19%,25µM*,-3%
CNC(=O)c1nn(-c2ccccc2)ccc1=O,0.0%,2%,17%,-5%,-10%,4%,-9%,-1%
NS(=O)(=O)c1ccc(CNC(=S)NCc2ccc(Cl)cc2)cc1,-9.2%,-9%,-1%,6%,-25%,6%,0%,14%
CC(C)c1cc(=O)n2[nH]c(SCc3ccc(Cl)cc3)nc2n1,x,-9%,x,x,x,-2%,-19%,5%
Cc1ccc(O)c(C(=O)c2cnc3c(c2)COc2ccc(C)cc2-3)c1,-9.2%,2%,-6%,-25%,u,-25%,-16%,-14%
COc1cccc(NC(=O)CNC(C)CCC(C)C)c1 (stereo not drawn),-0.2%,7%,2%,-4%,-3%,-5%,-19%,6%
CCOC(=O)c1ccc(NS(C)(=O)=O)cc1,2.5%,1%,21%,0%,u,-4%,-19%,2%
Cc1ccc(N2CC(C(=O)N3CCC(C(=O)NC(C)(C)C)CC3)CC2=O)cc1 (stereo not drawn),x,5%,18%,x,-21%[46.1 µM],-2%,-15%,-6%
CC(=O)c1sc(C(C)(C)C)cc1NC(=O)c1ccccc1C(=O)O,x,3%,6%,x,7%[14.2 µM],1%,0%,1%
O=C1c2cccc3cccc(c23)C(=O)N1CCN1CCN(CC(O)COc2ccc3ccccc3c2)CC1 (stereo not drawn),-20%,2%,u,-4%,u,-17%,u,-4%
CC(C)CN(C(=O)COC(=O)c1cnc(Cl)c(Cl)c1)c1c(N)n(Cc2ccccc2)c(=O)[nH]c1=O,x,x,u,x,-25%,5%,u,5%
CCOC(=O)c1c(NC(=O)COc2cccc(C)c2C)sc2c1CCCCC2,0.3%,x,-4%[46.1 µM],1%,x,x,-7%,x
Cc1ccc(C)n1-c1ccc2c(c1)COC2=O,0.3%,21%,x,-11%,-4%,-6%,x,x
Cc1cc(SCC(=O)N/N=C/c2ccc(O)c(O)c2)c(C)cc1Br,-12%,8%,-9%,-7%,2%[46.1 µM],10%,u,-3%
CCOC(=O)/C(C#N)=C/c1ccc(OCC(=O)Nc2ccc(OC)cc2)c(OC)c1,-0.1%,20%,2%,18%,-19%,-2%,-10%,9%
O=C(CCn1nc(-c2ccc(F)cc2)ccc1=O)NCc1ccccc1,x,3%,-2%,x,u,0%,-21%,0%
NC(=O)COC(=O)CNC(=O)c1cc(Cl)cc([N+](=O)[O-])c1,x,x,1%[46.1 µM],x,3%[46.1 µM],0%,-2%,2%
OC(c1ccccc1)C(Nc1ccccn1)c1ccccc1 (stereo not drawn),x,x,21%,x,-22%,x,-29%,25%
Cn1nnnc1SCC(=O)N1CCN(c2ccc(Cl)cc2)CC1,-3.7%,-7%,-1%,-5%,-15%,7%,u,6%
Cc1nn(C)c(C)c1CN(C)S(=O)(=O)c1ccc(F)cc1,-2.3%,4%,-5%,1%,-30%,12%,0%,7%
CC(C)c1nc(SCC(=O)N2CCc3ccccc32)n[nH]1,x,x,-1%,x,18%[46.1 µM],-1%,53%[activator],-4%
CCC(C)(C(=O)NC1CCCCC1)N(C(=O)Cc1cccs1)c1ccccc1 (stereo not drawn),-2.8%,-10%,6%,2%,u,13%,3%,-4%
COc1ccc(S(=O)(=O)Oc2cccc(C(=S)N3CCOCC3)c2)cc1,x,-1%,u,x,-19%,1%,0%,-11%
CC(C)(C)c1ccc(OCC(=O)NNC(=O)Nc2ccccc2)cc1,x,10%,x,x,x,u,3%,-12%
CCn1ccnc1CN1CCCC(C(=O)c2ccc(SC)cc2)C1 (stereo not drawn),x,7%,u,x,u,1%,u,-14%
Cn1cc(C(=O)NCc2ccc(Cl)cc2)c(=O)c2cc(S(=O)(=O)N3CCCCCC3)ccc21,-4.1%,x,12%[46.1 µM],-2%,12%[46.1 µM],x,-18%,x
CC(C)c1ccc(Nc2ncnc3c2c(-c2ccccc2)cn3-c2ccccc2)cc1,-0.1%,x,25%[46.1 µM],-13%,x,x,-12%,x
CC[C@@H]1C(c2ccc(F)cc2)=NN(c2ccccc2)[C@H]1C(=O)N1CCOC1=O,-0.2%,x,x,-3%,x,1%,u,-4%
O=C(CSc1ncccn1)Nc1ccc2c(c1)CCC2,x,-5%,x,x,x,2%,54%[activator],9%
CCOC(=O)c1ccc2c(c1)nc(C1CCN(S(=O)(=O)c3cccs3)CC1)n2CC,6.6%,-40%,u,10%,u,11%,x,1%
